Choline anaer gr: choline-fed anaerobic bacterial growth inhibition. Gram-negative bacterium anaerobic choline minimal medium, absorbance growth; stronger effect = lower value; many inactives read as strong as hits in the columns shown. calls only. actives 0.2% (n = 55,000);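 active = growth z-score on choline under -2 at 7 or 20 h with little or no fall on glycerol, limits in tiers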;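 also: stock transfer was 300 nL into about 50 µL; the organism is E. coli; final concentration not given here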
Choline anaer gr early: also measured in Choline anaer gr; calls as there; z-score; measured here: choline growth z-score, timepoint 1;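 score of optical density at 7 h as mean of two plates; lower means less growth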
The depositor's hits bear a star; i = inactive; + = active, no number; & = joins results of further samples; ! = not confirmed by another sample.

SMILES	Choline anaer gr	Choline anaer gr early
Cc1cc(C)c2c(c1)[C@H]1OCC[C@H]1C(c1ccc(O)c(Br)c1)N2 (stereo partly specified)	i	-0.53
CCCn1c(=O)c2ccccc2n2c(=O)n(CC(=O)c3ccccc3)nc12	i	-0.4
O=C(CSc1nnc2n(Cc3cccs3)c(=O)c3sccc3n12)NC1CCCCC1	i	-1
CCN(CC)S(=O)(=O)c1cc(-c2ccc(=O)n(C(C)C(=O)Nc3cccc(OC)c3)n2)ccc1C (stereo unspecified)	i	-0.55
Nc1cc(OC(=O)c2ccccc2Br)nn1S(=O)(=O)c1ccc(F)cc1	i	-1.7
Cc1ccc(-n2ccc(=O)c(-c3nc(-c4ccccn4)no3)n2)cc1	i	-1.6
CCCNc1nc2ccccc2n2c(C)nnc12	i	-0.24
CCOC(=O)c1[nH]c(C)c(S(=O)(=O)N2CCN(CC)CC2)c1C	i	-0.95
Cc1cccnc1-n1c(C)c(C)c2c1ncn1nc(CSc3nc4ccccc4s3)nc21	i	4.7
CC(C)n1c(=O)c(=O)[nH]c2cc(-c3noc(/C=C/c4ccccc4)n3)ccc21	i	2.2
CN1C(=O)c2cc(NC(=O)c3cc(-c4ccncc4)nc4ccccc34)ccc2N2CCN=C12	i	-0.48
CCn1c(CN(c2ccc(F)cc2)S(C)(=O)=O)nnc1SCC(=O)c1ccc(Cl)cc1	i	1.2
CC(CN(C)C)CN1c2ccccc2CCc2ccccc21 (stereo unspecified)	i	0.38&-1
COc1ccc(CCC(=O)NCCc2csc3nc(-c4cccc(F)c4)nn23)cc1	i	1.5
CN(C(=O)C1CCCN1S(=O)(=O)c1cc2c(cc1Cl)NC(=O)CO2)C1CCCCC1 (stereo unspecified)	i	-0.64
O=C(Nc1ccc2c(c1)OCO2)c1cccc(Nc2cc(-c3ccccc3)ncn2)c1	i	1.5
O=C(Cn1nc2cnc3ccccc3n2c1=O)Nc1ccc2c(c1)OCCO2	i	0.17
O=c1n(Cc2ccccc2F)nc2c(S(=O)(=O)N3CCCCC3)cccn12	i	-0.02
O=C1NCc2c1c1c3ccccc3[nH]c1c1[nH]c3ccccc3c21	i	0.2
COc1ccc(C2CC(=O)N(c3ccc(F)cc3F)C(=O)C2)cc1OC	i	0.21
O=C(CSCc1nc2cccnc2n1C1CCCCC1)NCc1ccccc1	i	0.47
CC(C)CCn1nc2c(S(=O)(=O)N3CCN(c4ccc(F)cc4)CC3)cccn2c1=O	i	0.18
O=C(O)c1cc(N2CCN(C(c3ccccc3)c3ccccc3)CC2)ccc1NC(=O)C1CCC1	i	0.53
COc1ccc(NC(=O)Cn2nc(C)c3c(C)n(-c4ccccc4)nc3c2=O)cc1OC	i	0.89
CS(=O)(=O)Nc1ccc(N2CCN(c3ccccc3Cl)CC2)cc1C(=O)O	i	-0.77

Brought forward from above: 5 entries, followed by the next part.
SMILES	Choline anaer gr	Choline anaer gr early
O=C(CSCc1nc2cccnc2n1C1CCCCC1)NCc1ccccc1	i	0.47
CC(C)CCn1nc2c(S(=O)(=O)N3CCN(c4ccc(F)cc4)CC3)cccn2c1=O	i	0.18
O=C(O)c1cc(N2CCN(C(c3ccccc3)c3ccccc3)CC2)ccc1NC(=O)C1CCC1	i	0.53
COc1ccc(NC(=O)Cn2nc(C)c3c(C)n(-c4ccccc4)nc3c2=O)cc1OC	i	0.89
CS(=O)(=O)Nc1ccc(N2CCN(c3ccccc3Cl)CC2)cc1C(=O)O	i	-0.77
CCCN(C)S(=O)(=O)c1cc(-c2nnc(C(C)C)o2)co1	i	0.25
Cc1c(NS(=O)(=O)c2ccc(Cl)cc2)c(-n2cnnc2)nn1C	i	0.86
CCn1cc2c(n1)-c1c(oc(C(=O)NC3CC3)c1C)CC2	i	0.54
CCOC(=O)Cc1ccc(NC(=O)N2CC(C)Sc3ccccc32)cc1 (stereo unspecified)	i	-0.18
Cc1ccc(S(=O)(=O)c2ccc(C(=O)Nc3ccc4c(c3)OCCO4)cn2)cc1C	i	0.63
CCOC(=O)c1c(NC(=O)c2cnn3c(C(F)F)cc(-c4ccccc4)nc23)sc2c1CCC2	i	-0.14
CN(CCCNC(=O)c1cccn1-c1cccnc1)c1ccccc1	i	-1.4
Cc1csc(-c2cc(S(=O)(=O)NC3CCCCC3)c(C)s2)n1	i	0.35
O=C(c1ccccc1F)N1CCN(Cc2cc(=O)n3nc(-c4ccccc4)sc3n2)CC1	i	-0.93
CCOc1ccc2nc(N3CCC(C(=O)NC(C)CC)CC3)sc2c1 (stereo unspecified)	i	0.93
CC1CCN(S(=O)(=O)c2ccc(-c3noc(-c4cncc(Br)c4)n3)cc2)CC1	i	0.17
CCOc1ccc2nc(NC(=O)C3CCN(C(=O)c4ccc(-c5noc(C)n5)cc4)CC3)sc2c1	i	0.46
Cc1nn(-c2nc3ccccc3[nH]2)c2c1C(c1cccc(Cl)c1)CC(=O)N2 (stereo unspecified)	i	1.4
Cn1c(=O)oc2cc(NS(=O)(=O)c3cnc[nH]3)ccc21	i	0.24
CCCCN(CC)C(=O)C1CCCN(c2ccc(-c3ccccc3C)nn2)C1 (stereo unspecified)	i	0.17
Cc1ccc(C)c(-c2nc(-c3cccc(-c4ccn[nH]4)c3)no2)c1	i	0.57
COc1ccc(N2CCN(S(=O)(=O)c3cc(-c4c(C)noc4C)ccc3OC)CC2)cc1	i	-0.05
CCN(CC)S(=O)(=O)c1c(C)nc2sc(C)nn12	i	-0.25
CCN(CC)C(=O)CS(=O)(=O)c1ccc2c(c1)S(=O)(=O)N=CN2	i	-1.3
CS(=O)(=O)N1CSC[C@@H]1C(=O)NCCc1csc(-c2ccccc2)n1	i	1.4
CC(C)Oc1ccc(NC(=O)C2CCCN(S(=O)(=O)Cc3ccc(F)cc3)C2)cc1 (stereo unspecified)	i	0.69
NC(=O)c1cccnc1	i	0.02&0.29
O=C(CN1C(=O)CSc2ccc(C(=O)N3CCCC3)cc21)Nc1ccccn1	i	0.34
CCN1CC(=O)Nc2cc(C(=O)OC)ccc21	i	-0.34
CCc1nc(OCC(=O)NC2CCS(=O)(=O)C2)c2c(-c3ccc(F)cc3)noc2n1 (stereo unspecified)	i	-0.71

(more compounds)
SMILES	Choline anaer gr	Choline anaer gr early
CCCn1c(=O)c2ccc(C(=O)NC(C)C)cc2n2c(SCC(=O)c3ccc(C)cc3C)nnc12	i	-0.46
COc1ccc(NC(=O)NC(c2ccc(F)cc2)c2nnc(-c3ccccc3)o2)cc1OC (stereo unspecified)	i	-2.4
O=C(NCc1ccc(F)cc1)C1CCCN(C(=O)c2cc(-c3cccnc3)n[nH]2)C1 (stereo unspecified)	i	-1.3
CCS(=O)(=O)c1ccccc1C(=O)Nc1sc2c(c1C(N)=O)CCC2	i	-0.45
Cn1cnc2cc(-c3noc(-c4ccc(Cl)c(Cl)c4)n3)ccc21	i	-1.5
CCCCn1c(=O)c2c(ncn2CC(C)=O)n(CCCC)c1=O	i	1.3
COc1ccc(CNc2nc(N3CCCC3CO)ncc2C(=O)NCc2ncccn2)cc1Cl (stereo unspecified)	i	0.86
O=C(NCC(=O)N1CCCc2ccccc21)c1n[nH]c2c1CCCC2	i	1.2
CCCCN(CC)c1ccc(NC(C)=O)cc1C(=O)O	i	1.7
CC1CCCCN1Cc1cc(=O)n2[nH]c(-c3ccc(C(C)(C)C)cc3)nc2n1 (stereo unspecified)	i	0.99
CC(Sc1nnc2c3ccccc3nc(-c3ccccc3)n12)C(=O)NC1CC1 (stereo unspecified)	i	-0.32
Cc1nc(-c2cc3cccc(C)c3nc2NCc2ccccc2)no1	i	2.4
CCc1ccc(-c2[nH]ncc2CN2CCCC2c2cc(C(C)C)on2)cc1 (stereo unspecified)	i	-0.3
CCCn1c(CN2CCC(C)CC2)nc2cc(NC(=O)C3CCCCC3)ccc21	i	1
CCCn1c(Cn2ccnc2C)nc2cc(NC(=O)c3cccc(C)c3)ccc21	i	0.14
O=C(Nc1ccnn1C1CCCC1)c1ccc(Cl)cc1	i	0.3
CCOc1cc(-c2cccc(OC)c2)nc2ccc(C(=O)N3CCN(c4ccccn4)CC3)cc12	i	0.48
CCC(=O)Nc1ccccc1-c1nnc(SC(CC)C(=O)Nc2cccc(CC)c2)[nH]c1=O (stereo unspecified)	i	0.36
C#CCn1c(CN2CCOCC2)nc2ccccc21	i	-0.69
CCn1nc2ccc(S(=O)(=O)N3CCSCC3)cn2c1=O	i	-0.13
CCOc1ccccc1NC(=O)Nc1ccccc1SCc1cc(=O)n2cc(Cl)ccc2n1	i	0.63
Cc1ccc(NS(=O)(=O)c2cn(C)c(C)n2)c(Cl)c1	i	0.48
CCn1c(C(C)N2CCCCC2)nc2ccccc21 (stereo unspecified)	i	-1.3
Nc1nc(Cl)nc2c1ncn2[C@@H]1O[C@H](CO)[C@@H](O)[C@@H]1F	+!	-3.2*!
O=C(c1ccc(N2CCNCC2)c(NS(=O)(=O)c2ccc(C3CCCCC3)cc2)c1)N1CCOCC1	i	0.48

Complete entries, looked up by structure. Values in the order: Choline anaer gr	Choline anaer gr early
COc1ccc(NC(=O)NC(c2ccc(F)cc2)c2nnc(-c3ccccc3)o2)cc1OC (stereo unspecified) is listed as i	-2.4
Nc1nc(Cl)nc2c1ncn2[C@@H]1O[C@H](CO)[C@@H](O)[C@@H]1F is listed as +!	-3.2*!
Cc1nc(-c2cc3cccc(C)c3nc2NCc2ccccc2)no1 is listed as i	2.4
Cn1cnc2cc(-c3noc(-c4ccc(Cl)c(Cl)c4)n3)ccc21 is listed as i	-1.5

Further entries follow:
SMILES	Choline anaer gr	Choline anaer gr early
O=C(c1ccc2c(c1)OCO2)N1CCCC1c1cccc(F)c1 (stereo unspecified)	i	-0.68
CCN(CC)c1ncnc2c1cnn2CC(=O)N1CCC2(CC1)OCCO2	i	0.95
O=C(Nc1ccc2c(c1)OCO2)N1CCc2c([nH]c3ccccc23)C1c1ccc(F)cc1 (stereo unspecified)	i	2.2
CC1CCN(C(=O)C2CCCN(C(=O)c3nnc(C(=O)Nc4ccc(F)cc4)s3)C2)CC1 (stereo unspecified)	i	0.95
O=c1nc(SCc2ccc(F)cc2)c2c(n1C1CCCCC1)CCC2	i	0.96
CCOc1ccc(-c2nn3c(=O)c(NC(=O)c4ccc(OC)c(OC)c4)cnc3o2)cc1	i	0.01
CC(C)(C)NS(=O)(=O)c1ccc2c(c1)C(C)(C)CN2CC(=O)N1CCCC1	i	1.4
Cc1nnsc1C(=O)Nc1sc2c(c1C(N)=O)CCCC2	i	1
CCOC(=O)CNC(=O)Cn1c(=O)c2c(OCC)c(C)cnc2n(C)c1=O	i	-0.74
CNC(=O)Cc1ccc(-n2c(=O)c3ccccc3n(CC(=O)Nc3ccc(F)c(Cl)c3)c2=O)cc1	i	-0.67
COc1ccc2sc(N(CCN(C)C)C(=O)c3ccccc3Cl)nc2c1	i	0.22
CC(C)[C@H](N)C(=O)OCCOCn1cnc2c(=O)[nH]c(N)nc21	i	0.74&0.21
O=S(=O)(Nc1ccc(-c2nnc(-c3ccccc3)o2)cc1)c1ccc(Br)cc1	i	1.1
CCOc1ccc(C(Nc2nc(C)cc(C)n2)c2cc(C)sc2NC(=O)c2ccccc2)cc1 (stereo unspecified)	i	0.69
Cc1nc2cccnc2n1-c1cc(C(=O)NCc2cccnc2)ccc1Cl	i	0.3
COC(=O)c1ccc2c(=O)n(-c3cc(F)cc(F)c3)c(N3CCSC3)nc2c1	i	0.6
Cc1noc(-c2cc(S(=O)(=O)NC3CCCC3)c(C)s2)c1C	i	0.65
Cc1ccc(S(=O)(=O)N2CCc3cc(C(=O)NCC4CCCO4)ccc32)cc1 (stereo unspecified)	i	0.14
CCc1nnc(-c2coc(S(=O)(=O)N3CCN(CC)CC3)c2)o1	i	-0.23
COc1cccc(C2C3=C(CC(c4ccccc4)CC3=O)Nc3onc(C)c32)c1 (stereo unspecified)	i	-0.11
COc1ccc(-c2csc(-c3nc(-c4ccc(OC)c(F)c4)cs3)n2)cc1	i	0.39
CN1C(CC(=O)c2ccccc2)CCCC1CC(O)c1ccccc1 (stereo unspecified)	i	0.93
O=C(Cn1ccn2nc(-c3ccc4c(c3)OCO4)cc2c1=O)NC1CCCCC1	i	0.42
CC(C)Sc1ncc(Cl)c(C(=O)Nc2sc3c(c2C(=O)NCC2CCCO2)CCC3)n1 (stereo unspecified)	i	0.9
Cn1c(SCC(=O)Nc2ccccc2)nc2cc(-c3ccccc3)sc2c1=O	i	-1.3

Part of the list above, with bars between the fields:
structure | Choline anaer gr | Choline anaer gr early
COc1cccc(C2C3=C(CC(c4ccccc4)CC3=O)Nc3onc(C)c32)c1 (stereo unspecified) | i | -0.11
COc1ccc(-c2csc(-c3nc(-c4ccc(OC)c(F)c4)cs3)n2)cc1 | i | 0.39

More compounds:
SMILES	Choline anaer gr	Choline anaer gr early
CCn1c2c(=O)[nH]c(=O)n(C)c2n2c(-c3ccc(OC)cc3)nnc12	i	0.12
COc1ccc(-c2nc(CN3CCN(C(=O)Nc4ccccc4)CC3)c(C)o2)cc1	i	-0.72
Cc1ccc(C2CC(=O)N(Cc3ccc4c(c3)OCO4)C(=O)C2)cc1	i	0.32
Cc1cc(C)n2nc(CN(c3cccc(Cl)c3)S(=O)(=O)c3ccccc3)nc2n1	i	-0.08
O=S(=O)(c1cc(F)ccc1F)N1CCN(c2ncnc3c2nnn3-c2cccc(F)c2)CC1	i	-0.31
O=C(Nc1ccccc1)N(Cc1ccccc1)c1nc2ccccc2s1	i	-0.11
COc1cccc(NC(=O)c2ccnc(N3CCC(C(=O)Nc4ccc(C)c(Cl)c4)CC3)c2)c1	i	-0.55
Cc1c(C(=O)NCC2CCCO2)sc2nc3n(c(=O)c12)CCC3 (stereo unspecified)	i	0.11
O=C(Nc1ccc(F)cc1)c1nnc(C(=O)N2CCC(C(=O)NCc3cccnc3)CC2)s1	i	-0.84
Cc1ccc(-c2csc(Nc3ccc(Br)cn3)n2)cc1	i	0.74
O=C(Cn1nc(-c2ccc(Cl)cc2)c2ccccc2c1=O)N1CCN(c2ccccc2)CC1	i	-0.6

Bioassay records (PubChem BioAssay)

The list is partial, so the mix of outcomes need not match the whole.
